# Screens from PubChem BioAssay.
# TRPML1 agonist: qHTS for Agonists of the Human Mucolipin Transient Receptor Potential 1 (TRPML1); Mucolipin-1 (Homo sapiens), Q9GZU1; TRPML1-expressing cells, Ca2+ dye fluorescence, FDSS; host cell line not named in the record; reference of the full effect not given here; activation, % (test concentration not listed); actives 0.12% (n = 410,000); AID 624414, 2012; in the data active = activation above about 50%; inconclusive = about 30% to 50%; inactive = below about 30%; further: 0% is about no effect; the text of the record puts the active cut at 80%
#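 Agonist activity was taken from a 110 s kinetic Ca2+ dye read on the FDSS after pinning compounds onto TRPML1-DL cells. The cells were seeded at 1,500/well with Tet inducer, incubated about 16 h, then dye-loaded at room temperature.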
# CtBP-E1A blk: qHTS Assay for Inhibitors of the CtBP/E1A Interaction | actives 0.49% (n = 340,000) | activity change, % (test concentration not listed) | AlphaScreen GST-E1A/His-CtBP binding, 1536-well; hits give low values; control for the full effect not named in the record | AID 651724, 2012; in the data active means activity change below about -65%; inconclusive means about -30% to -65%; inactive means above about -30%; further: on the % scale 0 is the no-effect control and ±100 the full control effect; compound concentration not given in the record
#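 Steps: dispense buffer (Tris pH 8.0, NaCl 300 mM, TCEP 1 mM, BSA, Tween 20); add 5X protein mix (GST-E1A, His-CtBP, 125 nM each); pin 23 nL compound; 2 h at 37 °C, dark; add 5X beads (50 ug/mL); 1 h; read.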
# PINK1 expr mod: A Quantitative High throughput Screen to Identify Chemical Modulators of PINK1 Expression; actives 0.2% (n = 410,000); Potency, µM (titrated, usually from 76.6 µM), inactives show top-dose activation (PINK1 increase), most hits filed as activators; AID 624263, 2012; PINK1 immunofluorescence, high-content cytometry, 24 h; active = well fitted activation curve with a large enough effect; inconclusive = small, poorly fitted or top-dose-only effect; inactive = flat fitted curve, though single readings scatter; cell line not stated here;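 further: potency means the concentration at half of the fitted maximal effect; % of control where 0% means no effect; nearly all actives have a fitted effect of over 65% in size; a mitochondrial uncoupler was the plate control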
#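 Readout is PINK1 immunofluorescence, quantified alongside mitochondrial, cell and nuclear markers by laser-scanning microplate cytometry. Cells from a stable line were exposed to compound titrations (5 concentrations) for 24 hours, with CCCP controls.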
# TRPML1 blocker: qHTS for Inhibitors of the Human Mucolipin Transient Receptor Potential 1 (TRPML1). activity change, negative = inhibition, % (test concentration not listed). AID 624415, 2012. actives 0.02% (n = 390,000). Mucolipin-1 (Homo sapiens), Q9GZU1. TRPML1-inducible cells, Ca2+ dye fluorescence, FDSS; hits give low values; inhibition of EC80 agonist-evoked calcium signal; in the data active means activity change below about -50%; inconclusive means about -30% to -50%; inactive means above about -30%;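 further: stimulus is agonist 54-4 at its EC80 concentration; on the % scale 0 is the no-effect control and ±100 the full control effect; compound concentration not given in the record; the text of the record puts the active cut at -80%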
#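 TRPML1-DL cells, Tet-induced overnight (~16 h, 37 °C) at 1,500 cells/well, were loaded with Ca8 no-wash dye plus quencher for 45-90 min at room temperature. Compounds were pinned during FDSS kinetic reading; agonist 54-4 at EC80 (4 uM final) then added.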
# D2 ag: Beta-Arrestin HTS for Positive Allosteric Modulators of the Human D2 Dopamine Receptor: Agonists; AID 624465, 2012; actives 0.084% (n = 360,000); activation, % (test concentration not listed); DiscoveRx PathHunter D2 beta-arrestin, luminescence, 90 min; 100% = 57 uM dopamine signal; in the data active = activation above about 40%; inconclusive = about 15% to 40%; inactive = below about 15%; further: compound concentration not given in the record; the text of the record calls up to 30% inactive
#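 DiscoveRx PathHunter D2 beta-arrestin cells (2,100/well) attached overnight, then compound-stimulated 90 min at 37 C in HBSS/10 mM HEPES/0.1% Tween-20 buffer; beta-galactosidase complementation read by luminescence after 1 h at ambient temperature. Dopamine 57 uM final (EC100) as control.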
# Six1-Eya2 blk: qHTS Assay for Inhibitors of the Six1/Eya2 Interaction; Homeobox protein SIX1 (Homo sapiens) + Protein phosphatase EYA2 (Homo sapiens), …; AlphaScreen GST-Six1/His-Eya2 binding, biochemical; hits give low values; control for the full effect not named in the record; activity change, % (test concentration not listed); actives 0.56% (n = 360,000); in the data active = activity change below about -65%; inconclusive = about -30% to -65%; inactive = above about -30%; further: on the % scale 0 is the no-effect control and ±100 the full control effect; compound concentration not given in the record
# Target sequence (O00167 whole entry, looked up): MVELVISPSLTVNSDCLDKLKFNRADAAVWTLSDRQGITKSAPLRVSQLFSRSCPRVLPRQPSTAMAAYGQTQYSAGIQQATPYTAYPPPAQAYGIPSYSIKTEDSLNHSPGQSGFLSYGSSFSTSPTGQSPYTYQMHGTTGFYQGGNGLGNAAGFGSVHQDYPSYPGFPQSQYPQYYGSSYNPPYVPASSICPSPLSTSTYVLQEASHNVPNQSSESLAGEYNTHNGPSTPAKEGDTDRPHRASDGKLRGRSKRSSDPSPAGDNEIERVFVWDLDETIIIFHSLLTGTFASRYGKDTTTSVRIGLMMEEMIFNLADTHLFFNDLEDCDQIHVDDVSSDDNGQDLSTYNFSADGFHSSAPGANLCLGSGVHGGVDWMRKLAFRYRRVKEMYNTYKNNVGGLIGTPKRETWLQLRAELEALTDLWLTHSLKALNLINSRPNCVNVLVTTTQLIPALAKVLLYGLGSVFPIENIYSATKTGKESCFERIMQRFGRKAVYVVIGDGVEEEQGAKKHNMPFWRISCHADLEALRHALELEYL
# Target sequence (Q15475 whole entry, looked up): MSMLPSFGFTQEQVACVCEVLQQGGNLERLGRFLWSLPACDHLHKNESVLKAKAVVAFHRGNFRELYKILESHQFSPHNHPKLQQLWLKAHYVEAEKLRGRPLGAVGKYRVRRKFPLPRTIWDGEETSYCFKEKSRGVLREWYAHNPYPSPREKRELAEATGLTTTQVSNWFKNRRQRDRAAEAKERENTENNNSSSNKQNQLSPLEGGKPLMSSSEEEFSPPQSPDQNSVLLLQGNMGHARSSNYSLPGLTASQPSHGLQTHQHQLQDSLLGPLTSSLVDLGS
#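 GST-Six1 + His-Eya2 (5X stock: 250/500 nM); Tris pH 8.0, 300 mM NaCl, 0.05% BSA, 0.02% Tween 20; GSH donor/Ni acceptor beads; 1 h 37 °C dark; AlphaScreen readout.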
# Active calls of the source: *; ? = inconclusive; . = no result given; [ ] = remark or other dose. This is a random part of the collection. About 1% of those tested had a hit in this group.
SMILES,TRPML1 agonist,CtBP-E1A blk,PINK1 expr mod,TRPML1 blocker,D2 ag,Six1-Eya2 blk
Nc1ccn([C@@H]2O[C@H](CNCc3ccc(OCC(=O)Nc4nccs4)cc3)[C@@H](O)[C@H]2O)c(=O)n1,0.2,-5,-1.1%,-10,-2.7,6
COc1ccc(NC(=O)CN2C(=O)COc3ccc(C)cc32)c(OC)c1,-1.4,1,-0.7%,2,4.4,-11
Cn1c(N)c(C(=O)COC(=O)c2cc(-c3ccco3)nc3ccccc23)c(=O)n(C)c1=O,-0.7,?,0.9%,-9,6.6,?
COC(=O)Cc1c[nH]c2cccc(OCC(O)CN(Cc3ccc([N+](=O)[O-])cc3)C(C)(C)C)c12 (centres undefined),-1.4,-23,-3.0%,-9,-1.8,-24
CCCCCCOC(=O)CC1CC(C(C)=O)C1(C)C (centres undefined),0.2,8,3.1%,6,-0.4,0
CCOC(=O)C1(Cc2ccc(OC)cc2)CCN(C(=O)c2sc(C)nc2C)CC1,0.5,.,0.5%,2,-0.9,-1
OC(C#CCN1CCOCC1)(c1ccccc1)C1CC1 (centres undefined),0.0,-4,-0.1%,-11,0.5,5
CCCc1nn2c(=O)cc(COc3ccc(/C=C(\C#N)C(=O)Nc4ccccc4)cc3)nc2s1,-0.3,.,15%,-8,.,.
COc1ccc(OC)c(NC(=O)c2cc3c(cc2Cl)N2CCCCCC2=NS3(=O)=O)c1,0.0,4,3.8%,14,-1.4,-4
CCCNS(=O)(=O)c1cc(-c2nn3c(C)nnc3c3ccccc23)ccc1C,1.6,.,6.3%,20,.,.
O=C(O)COc1cccc(NC(=O)C2CCCO2)c1 (centres undefined),0.0,12,3.7%,-9,-2.0,15
S=C(NCCSCc1c(Cl)cccc1Cl)Nc1ccccc1,-1.1,-8,3.2%,-11,6.4,-11
COc1cccc(NC(=O)CN2CCCCCC2)c1,0.6,-9,0.6%,-8,-4.0,8
Cc1nc2nc(SCC(=O)N(Cc3ccccc3)C(C)C)nn2c(C)c1Cc1ccccc1Cl,-0.3,.,0.7%,14,.,.
C[C@H](NC(=O)c1nc[nH]c1C(=O)N(C)CCO)c1ccccc1,-0.1,0,-1.1%,.,-3.5,-17
CC1=NN(C(N)=S)C(=O)C1N=Nc1ccc(Cl)cc1Cl (centres undefined),.,.,0.6%,.,-5.1,1
CCc1nc(SCC(=O)NC2CCCC2)c2c(=O)n(C)c(=O)n(C)c2n1,0.4,3,-0.5%,3,-1.2,-1
CC(C)Oc1ccc(C(=O)CCN2CCCCC2)cc1,8.0,-4,-0.1%,7,-2.7,2
Cc1ccc2nc(-c3ccccn3)cc(C(=O)Nc3ccc(S(=O)(=O)N4CCOCC4)cc3)c2c1,2.7,.,2.2%,39,-3.0,-4
Cc1ccccc1CC1(CO)CCCN(C(=O)c2cc(-c3ccccc3)no2)C1 (centres undefined),0.0,.,2.7%,-8,-2.9,-1
CCCC(NC(=O)COc1cc2c(c3oc(=O)cc(C)c13)CCC(C)(C)O2)C(=O)O (centres undefined),0.4,-4,-3.2%,16,-11,2
O=C(C1CCCCC1)N1CCN(S(=O)(=O)c2ccc(Br)cc2)CC1,-0.4,8,-2.4%,-2,-0.1,2
Cc1ccc2nc(-c3ccc(C#N)cc3)c(Cc3ccccn3)n2c1,-0.4,-6,0.7%,7,-6.1,-16
Cc1nn(-c2ccccc2C(F)(F)F)c(=O)c2noc(C)c12,-0.8,8,4.9%,8,-2.0,2
S=C(NN=Cc1ccc2c(c1)OCO2)NN=Cc1ccc2c(c1)OCO2,-0.4,-18,2.6%,13,-1.7,-16
CC1(C)CC(=O)C(N=Nc2cc3c(cc2[N+](=O)[O-])OCCO3)=C(O)C1,4.5,.,-1.4%,27,-1.0,-2
COc1ccc(S(=O)(=O)N2CCOC2CNC(=O)C(=O)NCCc2c[nH]c3ccccc23)cc1 (centres undefined),-0.5,-17,-0.1%,6,7.0,-8
N#Cc1c(NCCN)nc(-c2ccccc2)c2c1CCCC2,2.1,-1,-4.1%,9,-1.1,1
COc1ccc(CNC(=O)CCN2C(=O)c3ccccc3C2=O)cc1OC,0.5,1,2.1%,-6,6.6,11
C#CCOCCOCCOCCNc1nc(N2CCN(C(=O)[C@H](CCCCN)n3cc([C@@H](N)C(C)CC)nn3)CC2)nc(N2CCN(C(=O)[C@H](Cc3ccc(O)cc3)n3cc([C@@H](N)C(C)CC)nn3)CC2)n1 (some centres undefined),0.9,-19,-1.4%,-10,-4.3,-12

# 3 compounds drawn at random from the list so far:
SMILES,TRPML1 agonist,CtBP-E1A blk,PINK1 expr mod,TRPML1 blocker,D2 ag,Six1-Eya2 blk
COc1ccc(CNC(=O)CCN2C(=O)c3ccccc3C2=O)cc1OC,0.5,1,2.1%,-6,6.6,11
CCCC(NC(=O)COc1cc2c(c3oc(=O)cc(C)c13)CCC(C)(C)O2)C(=O)O (centres undefined),0.4,-4,-3.2%,16,-11,2
Cc1nn(-c2ccccc2C(F)(F)F)c(=O)c2noc(C)c12,-0.8,8,4.9%,8,-2.0,2

# (continued)
SMILES,TRPML1 agonist,CtBP-E1A blk,PINK1 expr mod,TRPML1 blocker,D2 ag,Six1-Eya2 blk
CN(/N=C/c1ccc2c(c1)OCO2)c1nc(N2CCOCC2)nc(N2CCOCC2)n1,1.0,-2,-1.7%,18,-1.8,3
Cc1ccc(S(=O)(=O)Nc2ccc3c(c2)C(=O)N([C@H](C)CO)C[C@H](C)[C@@H](CN(C)C(=O)Nc2ccc(C(F)(F)F)cc2)O3)cc1,0.3,-7,-0.8%,-5,-2.6,-1
Cc1ccccc1Cn1cc(CCC(=O)NCc2cccc(Br)c2)c2ccccc21,2.9,.,-0.9%,-7,.,.
Cc1ccc(C)c(NC(=O)CN2C(=O)c3ccccc3C2=O)c1,-0.1,0,-1.3%,16,-5.1,3
CCOc1ccc2oc(C(=O)OC(C(=O)NC(N)=O)C(C)C)c(C)c2c1 (centres undefined),0.0,-1,-0.5%,-1,-4.1,0
COc1cc2c(cc1OC)CN(CCC(=O)c1ccc(Br)cc1)CC2,-0.4,-5,0.6%,-11,-5.1,-2
CCOC(=O)c1sc(NC(C)=O)cc1C,-0.5,5,1.7%,-26,-0.3,-2
COC(=O)C1CCN(C(c2ccccc2Cl)c2sc3nc(-c4ccco4)nn3c2O)CC1 (centres undefined),0.7,.,-1.0%,-11,.,.
O=C(COc1ccc(Cl)cc1)OCc1csc(Nc2ccccc2)n1,2.1,-3,-0.2%,21,-2.0,-2
CN(Cc1ccccc1)C(=O)CCc1ccccc1,-0.5,13,-0.3%,3,-1.9,13
Oc1ccc(-c2[nH]nc(-c3ccccc3)c2-c2nc3ccccc3[nH]2)cc1,-0.6,-1,3.0%[38.3 µM],-6,0.0,-2
CC1(C)Cc2cccc(OCC(=O)OCc3nnc(-c4ccc([N+](=O)[O-])cc4)o3)c2O1,1.6,-4,-1.0%,10,8.4,-8
O=C(c1ccc(CN2CCc3ccccc3C2)cc1)N1CCc2ccccc2C1,0.0,11,8.2%,5,-3.1,-18
Cn1cc(CNCc2ccc(OC(F)(F)F)cc2)c(-c2ccc3c(c2)OCCO3)n1,-0.8,-1,0.3%,-10,0.7,-3
Cc1ccc(-c2nn3c(C)nnc3s2)cc1NC(=O)c1ccc(OC(C)C)cc1,3.3,-10,1.0%,22,0.2,9
COc1ccc(N2CCN(C(=O)C3CCCN(S(=O)(=O)c4cccc5cccnc45)C3)CC2)cc1 (centres undefined),1.4,-1,-2.9%,19,0.3,-14
CC12CN3CCN(CC(C3)/C1=N/N=C/c1cccc([N+](=O)[O-])c1)C2,0.5,-10,-1.3%,-15,1.7,-7
COc1ccc(NC(=O)Nc2ccncc2)c(OC)c1,0.5,0,-0.6%,-5,4.0,-7
C/C(=N\NC(=O)c1ccccc1O)c1ccc(NC(=O)c2ccccc2)cc1,1.4,-1,-0.2%,2,0.1,-2
COc1cccc(/C=N/NC(=O)c2cccs2)c1,2.2,-2,4.9%,8,8.8,-9
COC(=O)c1cccc2c1NC(=O)C2=O,0.9,0,2.1%,14,-5.8,1
Fc1cnc(N2CCOCC2)nc1N1CCc2ccccc21,1.2,5,-0.9%,63,0.7,4
COc1ccc(Cn2nnnc2CN2CCC(O)(c3ccccc3F)CC2)cc1,-0.1,-4,0.5%,-2,-0.6,-3
CCCC(=O)N1CCCC1(C)C(=O)NCc1ccc(F)cc1Cl (centres undefined),-0.6,7,0.2%,.,-2.1,0
Cc1ccc(NC(=O)CN2CCCN(Cc3cc(C)ccc3C)S2(=O)=O)c(Cl)c1,3.2,.,0.1%,39,.,.
Cc1cc(C)cc(NS(=O)(=O)c2ccc3oc(=O)ccc3c2)c1,0.9,1,-2.1%[38.3 µM],44,1.2,1
Cc1[nH]c2ccc(C(=O)NCC(C)(C)N3CCOCC3)cc2c1C,-0.4,.,0.2%,6,-0.6,3
O=C(NCC(c1ccco1)N1CCc2ccccc2C1)c1ccccc1 (centres undefined),-0.7,0,-1.1%,6,-3.9,-7
O=C(c1ccco1)N1CCN(Cc2cc(=O)c(OCc3ccccc3Cl)co2)CC1,-0.6,3,4.7%,16,-4.0,-4
O=C(CSc1ccccc1)N1CCc2ccccc21,1.7,8,-0.2%,11,-0.3,5
O=C(CN1C(=O)COc2ccc(Cl)cc21)Nc1cccc(C(=O)O)c1,-1.1,.,1.9%,3,.,.
O=C(CCC1N=C2c3ccccc3N=C(SCc3ccc(Cl)cc3)N2C1=O)N1CCN(c2ccccc2)CC1 (centres undefined),0.0,.,1.6%,-14,.,.
CC(C)c1nnc(NC(=O)CCC2CCCCC2)s1,-0.1,6,1.2%,25,2.3,1
COC(=O)c1c(C)oc(C)c1S(=O)(=O)N(Cc1ccccc1)C(C)C,1.9,-15,-1.6%,-3,-3.8,-2
CN(CCc1ccccc1)C(=O)c1cccc(NC(=O)Cc2ccc([N+](=O)[O-])cc2)c1,0.3,-1,21%,-15,1.3,-1
NC(=O)Cn1nc([N+](=O)[O-])nc1Oc1ccc(Br)cc1,0.8,3,0.6%,2,?,2
COc1ccc(C(=O)NCCc2sc(-c3ccc(Cl)cc3)nc2C)c(OC)c1,4.6,.,1.3%,63,.,.
CCc1nnc(NC(=O)C(=O)NCCOC(=O)c2ccccc2Cl)s1,1.9,3,.,7,-3.1,-29
Cc1ccc2c(n1)sc1c(=O)n(-c3cccc(C(F)(F)F)c3)nnc12,1.9,.,-1.1%,1,.,.
Cc1nc(SCC(=O)c2cc3ccccc3oc2=O)c(C#N)c(-c2cccs2)c1C(=O)Nc1ccccc1,0.1,13,40µM*,10,-4.0,-3
